Lassa entry inh – qHTS for Inhibitors of binding or entry into cells for Lassa Virus; Lassa virus pseudotype entry inhibition, cell reporter; control for the full effect not named in the record; Potency, µM (highest dose often 37.9 µM), inactives show top-dose activity change, negative = inhibition, usual class: inhibitors; actives 1.2% (n = 300,000); AID 540256, 2011; active means well fitted inhibition curve with a large enough effect; inconclusive means small, poorly fitted or top-dose-only effect, or effect the other way; inactive means flat fitted curve, though single readings scatter; tested in HEK293 cells; further: on the % scale 0 is the no-effect control and ±100 the full control effect; nearly all actives have a fitted effect of over 50% in size; luciferase read-out
SARS PLP yeast – qHTS of Yeast-based Assay for SARS-CoV PLP | actives 0.19% (n = 330,000) | Potency, µM (top dose mostly 32.9 µM), for inactives: top-dose activity, positive = growth rescue | S. cerevisiae expressing SARS-CoV PLpro, growth rescue; control for the full effect not named in the record | AID 485353, 2010; active means well fitted rising curve with a large enough effect; inconclusive means small, poorly fitted or top-dose-only effect; inactive means no such curve, though single readings can be large or run the other way; further: 0% is about no effect; nearly all actives have a fitted effect of over 55% in size; growth read by luminescence after 48 h
2A StopGo – High Throughput Screening for Foot and Mouth Disease Virus Antivirals | human cells with a luciferase reporter of 2A StopGo recoding; control for the full effect not named in the record | Potency, µM (series often up to 57.9 µM), for the others: top-dose signal change, negative = less light | actives 1.2% (n = 410,000) | AID 1159524, 2015; active = well fitted falling curve with a large enough effect; inconclusive = small, poorly fitted or top-dose-only effect; inactive = no such curve, though single readings can be large or run the other way; tested in HEK293T cells; further: on the % scale 0 is the no-effect control and ±100 the full control effect; nearly all actives have a fitted effect of over 45% in size; luciferase light after 4 h
RE007 growth inh – qHTS Assay for Inhibitors of the HIV-1 protein Vpr; S. pombe RE007 Vpr strain, BacTiter-Glo ATP luminescence, 24 h; control for the full effect not named in the record; Potency, µM (top dose mostly 92.2 µM), without a hit: top-dose activity change, negative = less growth; actives 0.21% (n = 360,000); active = well fitted falling curve with a large enough effect; inconclusive = small, poorly fitted or top-dose-only effect; inactive = no such curve, though single readings can be large or run the other way;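 further: on the % scale 0 is the no-effect control and ±100 the full control effect; nearly all actives have a fitted effect of over 50% in size; the assay follows cell death caused by Vpr and the record does not say whether a fall means rescue or toxicity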
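Fission yeast RE007 carrying one integrated HIV-1 vpr copy, seeded at OD 0.01 in PMG+AL medium with 23 nL pinned compound. Grown 24 h at 30 degrees; viability read by BacTiter-Glo luminescence after 5 min.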
NS1 function inh – qHTS Assay for Inhibitors of Influenza NS1 Protein Function; AID 2326, 2010; actives 0.4% (n = 270,000); Potency, µM (titrated, usually from 46.1 µM), for the others: at the highest dose activity, positive = more growth; S. cerevisiae slowed by influenza A NS1, growth recovery by OD600; active means well fitted rising curve with a large enough effect; inconclusive means small, poorly fitted or top-dose-only effect; inactive means no such curve, though single readings can be large or run the other way; further: nearly all actives have a fitted effect of over 50% in size
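Growth recovery, yeast-based: influenza A NS1 expressed in S. cerevisiae causes slow growth, and suppressors are detected by OD600. The parent strain without NS1 is used as positive control.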
Cruzain inh noDet – qHTS Assay for Promiscuous and Specific Inhibitors of Cruzain (without detergent) | Cruzipain (Trypanosoma cruzi), P25779 | purified cruzain, Z-FR-AMC fluorescence, no detergent | Potency, µM, without a hit: max response, negative = inhibition, actives largely listed as inhibitors | actives 2.3% (n = 200,000);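 further: plate controls were enzyme without inhibitor for no effect and buffer without enzyme for full effect; nearly all actives have a fitted effect of over 40% in size; top concentration of the series not given in the record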
Target sequence (P25779 123-467 limits assumed): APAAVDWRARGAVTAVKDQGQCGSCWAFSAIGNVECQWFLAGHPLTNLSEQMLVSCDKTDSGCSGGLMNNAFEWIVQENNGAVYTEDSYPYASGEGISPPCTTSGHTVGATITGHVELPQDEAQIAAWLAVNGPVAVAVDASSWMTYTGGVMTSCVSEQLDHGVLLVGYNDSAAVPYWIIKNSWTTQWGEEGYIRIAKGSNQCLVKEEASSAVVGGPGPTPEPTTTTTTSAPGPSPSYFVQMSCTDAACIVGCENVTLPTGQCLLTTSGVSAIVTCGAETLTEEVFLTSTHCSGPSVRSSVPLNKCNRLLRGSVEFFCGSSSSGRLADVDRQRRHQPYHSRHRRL
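Detergent-free condition (0.00005% Triton X-100) in acetate buffer pH 5.5 with DTT. 1.5 nM enzyme and compound were pre-mixed 15 min, then 2 uM Z-FR-AMC substrate added; reaction progress from fluorescence change between first and third reads (60 s).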
Marburg entry inh – qHTS for inhibitors of binding or entry into cells for Marburg Virus; Marburg virus pseudotyped entry inhibition, cell reporter; control for the full effect not named in the record; about a third of the inactives were read at about 46 µM; Potency, µM (doses to about 37.8 µM), inactives show at the top dose activity change, negative = inhibition, most hits filed as inhibitors; actives 1.8% (n = 300,000); active = well fitted inhibition curve with a large enough effect; inconclusive = small, poorly fitted or top-dose-only effect, or effect the other way; inactive = flat fitted curve, though single readings scatter; tested in HEK293 cells; about a fifth of its hits are not listed in these tables; further: on the % scale 0 is the no-effect control and ±100 the full control effect; luciferase read-out
Cruzain Triton – qHTS Assay for Promiscuous and Specific Inhibitors of Cruzain (with detergent) | AID 1478, 2009 | purified cruzain, Z-FR-AMC fluorescence, 0.01% Triton | actives 0.43% (n = 200,000) | Potency, µM, for inactives: max response, negative = inhibition, usual class: inhibitors | Cruzipain (Trypanosoma cruzi), P25779;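 further: plate controls were neutral wells for no effect and buffer without enzyme for full effect; nearly all actives have a fitted effect of over 40% in size; top concentration of the series not given in the record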
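Cruzain (1.5 nM) preincubated 15 min at RT with compound in 100 mM sodium acetate pH 5.5, 5 mM DTT, 0.01% Triton X-100. Reaction started with 2 uM Z-FR-AMC; AMC fluorescence (ex 360/em 450 nm) change over 60 s gave rate.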
* = called active by the depositor; ? = inconclusive; · = not tested or not shown; & = joins results of further samples; [ ] = dose if it differs, or a comment. Unless noted, the call rests on the fitted dose curve; in most records, active means well fitted curve in the direction sought with a large enough effect; inconclusive means small, poorly fitted or top-dose-only effect, or another doubt; inactive means no such curve, though single readings can be large; an effect the other way counts as inactive or inconclusive. Potency means the concentration at half of the fitted maximal effect.

Results follow in this order: Lassa entry inh	SARS PLP yeast	2A StopGo	RE007 growth inh	NS1 function inh	Cruzain inh noDet	Marburg entry inh	Cruzain Triton
- Cc1ccc(NN2C(=O)C=CC2=O)cc1
→ 4%	1%	-10%	5%	6%	0%	20%	1.6%
- CCN1CCC2(CCNC2)C1 (configuration not stated)
→ ?	5%	12%	22%	6%	-9%	-3%	6.0%
- CC(C1CC1)N(Cc1ccccc1)C(=S)Nc1cccc(C(F)(F)F)c1 (configuration not stated)
→ ?	?	11%	-2%	-63%	-5%	-39%	-4.9%
- COc1ccc(Oc2ccccc2/C=N/O)cc1
→ -11%	-9%	?	7%	-93%	-1%	?	2.2%
- O=C(CNC(=O)c1cccc(F)c1)N/N=C/C=C/c1ccccc1
→ -6%	3%	6%	3%	·	·	6%	·
- Cc1cccc(OCC(=O)NCCCNC(=O)c2ccc(C)nc2)c1
→ 3%	2%	-7%	12%	-14%	·	-21%[46.1 µM]	·
- Cc1ccc(-c2cc(-c3ccc(F)cc3)nc(N)c2C#N)o1
→ ?	-8%	?	-10%	-32%	13%	-11%	-12%
- CCCCOC(=O)NC1(C)CCS(=O)(=O)C1 (configuration not stated)
→ 8%	3%	8%	-11%	10%	-2%	11%	-1.9%
- Nc1ccc(C(=O)Nc2ccco2)cc1
→ 51%	-20%	37%[activator]	22%	4%	7%	-4%[46.1 µM]	-2.8%
- COc1ccc(C(=O)CSc2nnc(-c3ccccn3)n2Cc2ccco2)cc1
→ 12%	-2%	-3%	-12%	?	?	28%	-7.7%
- Nc1nc(NCC(=O)O)nc(NC2CCCCC2)c1[N+](=O)[O-]
→ ·	3%	-18%	4%	1%	·	·	·
- CC(=O)c1ccc(S(=O)(=O)N2CCN(S(=O)(=O)c3ccccc3C(F)(F)F)CC2)cc1
→ ·	1%	-13%	-8%	12%	·	·	·
- COC(=O)COc1ccc(S(=O)(=O)N2CCN(c3ccc(F)cc3)CC2)cc1
→ 14%	-2%	·	5%	-125%	23%	-1%	-1.5%
- COc1ccc2[nH]c3c(c2c1)CCN1C(=O)C(CC(=O)NCc2cccc(C(F)(F)F)c2)C[C@H](C(=O)N2CCCCC2)[C@@]31C (some centres not stated)
→ ·	15%	-22%	-5%	·	·	-3%	·
- CCCCC(=O)Nc1cccc(NC(=S)NC(=O)C(C)C)c1
→ -2%	0%	-11%	·	4%	1%	10%	-2.1%
- O=C(CSc1ncnc2nc[nH]c12)N1CCN(c2ccc(Cl)cc2)CC1
→ ?	-22%	?	15%	11%	12%	?	-1.3%
- O=C(CCNS(=O)(=O)c1ccccc1)Nc1ccc(Cl)cc1C(=O)c1ccccc1
→ -26%	4%	1%	-9%	-10%	-11%	8.9µM*	-7.1%
- CCCn1c(CNC(=O)Cc2ccccc2)nc2ccccc21
→ -1%	-5%	7%	0%	-3%	-19%	-14%	-0.8%
- NNc1nc(-c2ccccc2Cl)nc2ccccc12
→ ·	7%	19%	-12%	4%	·	·	·
- CCOc1cc(CNC(=O)CCCn2c(=O)c3cccn3c3cccnc32)cc(OCC)c1OCC
→ 16%[46.1 µM]	-1%	-1%&-7%	-21%	-17%	?	?	-6.3%

Among those listed so far, these contain a furan ring, fused or not.
Results follow in this order: Lassa entry inh	SARS PLP yeast	2A StopGo	RE007 growth inh	NS1 function inh	Cruzain inh noDet	Marburg entry inh	Cruzain Triton
- Cc1ccc(-c2cc(-c3ccc(F)cc3)nc(N)c2C#N)o1
→ ?	-8%	?	-10%	-32%	13%	-11%	-12%
- Nc1ccc(C(=O)Nc2ccco2)cc1
→ 51%	-20%	37%[activator]	22%	4%	7%	-4%[46.1 µM]	-2.8%
- COc1ccc(C(=O)CSc2nnc(-c3ccccn3)n2Cc2ccco2)cc1
→ 12%	-2%	-3%	-12%	?	?	28%	-7.7%

Following part
Results follow in this order: Lassa entry inh	SARS PLP yeast	2A StopGo	RE007 growth inh	NS1 function inh	Cruzain inh noDet	Marburg entry inh	Cruzain Triton
- CCCC(=O)Nc1ccc(C(=O)NNC(=O)COc2ccc(Br)c(C)c2)cc1
→ 19%	6%	-21%	4%	5%	?	11%	-26%
- Cc1ccccc1Cc1c(C)nc2nc(SCC(=O)NCc3ccco3)nn2c1C
→ 5%	0%	-16%	6%	-5%	-2%	?	5.5%
- COc1ccc(-c2nnc(Nc3ccc(CC(N)=O)cc3)c3ccccc23)cc1
→ -16%	?	?	7%	6%	-2%	-21%	-2.4%
- CC1=NN(C(=O)c2ccccc2C)C(O)(c2ccc(Cl)cc2)C1 (configuration not stated)
→ 6%[46.1 µM]	-4%	-11%	-20%	-8%	·	-25%[46.1 µM]	·
- Cc1ccc(NC(=O)CN2C(=O)COc3ccc(S(=O)(=O)N4CCCCCC4)cc32)c(C)c1
→ 6%[46.1 µM]	·	2%	·	·	0%	·	-1.7%
- Cc1ccc(CCNC(=O)C2CCN(C(=O)N(C)C)CC2)cc1
→ -11%	0%	·	0%	-18%	1%	4%	2.6%
- COCc1cc(N2CCOCC2)nc(-c2ccccc2)n1
→ 9%	1%	-22%	-11%	·	·	10µM*	·
- O=C(N/N=C/c1ccco1)c1cc(-c2ccc(Cl)cc2)n[nH]1
→ -28%	-6%	-7%	75%	-11%	·	16%[46.1 µM]	·
- CCN1CCN(CCCOc2ccccc2-c2ccccc2)CC1
→ ?	0%	-10%	?	3%	·	?	·
- CC(=O)N/C(=C/c1ccc(OS(=O)(=O)c2ccc(C)cc2)cc1)C(=O)Nc1ccc(C(=O)O)cc1
→ -1%	-2%	-17%	-8%	10%	·	-12%[46.1 µM]	·

Filtered by structure, those above with an aryl methoxy group.
Results follow in this order: Lassa entry inh	SARS PLP yeast	2A StopGo	RE007 growth inh	NS1 function inh	Cruzain inh noDet	Marburg entry inh	Cruzain Triton
- COc1ccc(Oc2ccccc2/C=N/O)cc1
→ -11%	-9%	?	7%	-93%	-1%	?	2.2%
- COc1ccc(C(=O)CSc2nnc(-c3ccccn3)n2Cc2ccco2)cc1
→ 12%	-2%	-3%	-12%	?	?	28%	-7.7%
- COc1ccc2[nH]c3c(c2c1)CCN1C(=O)C(CC(=O)NCc2cccc(C(F)(F)F)c2)C[C@H](C(=O)N2CCCCC2)[C@@]31C (some centres not stated)
→ ·	15%	-22%	-5%	·	·	-3%	·
- COc1ccc(-c2nnc(Nc3ccc(CC(N)=O)cc3)c3ccccc23)cc1
→ -16%	?	?	7%	6%	-2%	-21%	-2.4%

Going on with the list:
Results follow in this order: Lassa entry inh	SARS PLP yeast	2A StopGo	RE007 growth inh	NS1 function inh	Cruzain inh noDet	Marburg entry inh	Cruzain Triton
- CC(=O)N1CCc2cc(C(=O)CN3CCC(C)CC3)ccc21
→ ·	-6%	-16%	-7%	-1%	1%	·	-1.7%
- COc1ccc(CN=CC2=C(O)CNC2=O)cc1OC
→ 23%	-4%	-17%	9%	-2%	17%	4%[46.1 µM]	2.2%
- O=C(CSCc1ccc(F)cc1)NCc1ccc(F)cc1
→ 18%	0%	2%&4%	-23%	·	-5%	-4%&-4%	-0.4%
- O=C(COc1ccc(Cl)cc1)N1CCN(c2cccc(C(F)(F)F)c2)CC1
→ -11%	-10%	-25%	-9%	9%	13%	-29%	-11%
- CC1=C(C(=O)OC(C)C)C(c2ccc(F)cc2)NC(=O)N1 (configuration not stated)
→ 14%	0%	-9%	0%	5%	-3%	-1%	-3.9%
- CCOC(=O)/C(C#N)=C\c1c(OCC)n(CC)c2ccccc12
→ ?	-25%	?	-14%	-6%	2%	?	-13%
- CCOC(=O)C1C(c2ccccc2Cl)NC(=O)N(C)C1(O)C(F)(F)F (configuration not stated)
→ 3%	-3%	5%	4%	-7%	3%	?	3.4%
- O=C(NCc1ccc2c(c1)OCO2)C1CCCN1C(=O)Nc1ccc(Cl)cc1 (configuration not stated)
→ -4%	-1%	10%	-8%	-8%	·	?	·
- O=C(CSc1nc2ccccc2s1)Nc1ccc(Cl)c(C(=O)O)c1
→ 3%	0%	4%	3%	·	·	?	·
- CCc1nc(CN2CCN(c3ccc(C(F)(F)F)cn3)CC2)c(C)[nH]1
→ ·	0%	?	-16%	-2%	·	·	·
- COc1ccc(S(=O)(=O)Nc2cccc(F)c2C)cc1C(=O)N1CCOCC1
→ -13%[46.1 µM]	2%	13%	6%	·	·	18%[46.1 µM]	·
- Cc1ccc(N(C(=O)c2ccco2)C(C(=O)NC2CCCC2)c2ccco2)c(C)c1 (configuration not stated)
→ ?	0%	-12%	4%	-4%	·	?	·
- Cn1c(CCN2CCOCC2)nc2cc(NC(=O)COc3ccc([N+](=O)[O-])cc3)ccc21
→ ·	3%	-17%	-15%	5%	·	·	·
- CCc1ccc(OC(C)C(=O)Nc2c(C(=O)c3ccccc3)oc3ccccc23)cc1 (configuration not stated)
→ -6%[46.1 µM]	·	-21%	·	·	-10%	?	-2.9%
- CN(CC(=O)Nc1ccccc1Br)C(=O)c1cccc(S(=O)(=O)NCc2ccccc2)c1
→ -1%	-2%	6%	-20%	·	·	-6%	·
- O=C(Nc1ccc(F)cc1Cl)c1ccc2c(=O)n3c(nc2c1)CCC3
→ ?	-5%	13%	1%	·	·	-6%	·
- Cc1cccc(C)c1NC(=O)COC(=O)c1ccc(N2CCCC2)c([N+](=O)[O-])c1
→ 9%	16%	-24%	11%	?	10µM*	?	-2.2%
- CCN(CC)CCCNc1ncnc2scc(-c3ccc(F)cc3)c12
→ ?	3%	-4%	-9%	23%	·	-3%	·
- C/C(Cn1nnc2ccccc21)=N\NC(=O)c1ccc(Br)cc1
→ 3%	-1%	23%	0%	·	·	-5%[46.1 µM]	·
- Cc1cccc(N(CC(=O)NCCSc2ccc(Cl)cc2)S(C)(=O)=O)c1C
→ ?	·	-18%	·	·	19%	-22%[46.1 µM]	-9.3%
- C=CCOC(=O)C1=C(C)OC(N)=C(C#N)C1c1ccoc1 (configuration not stated)
→ -8%	8%	-20%	4%	5%	-2%	6%	-0.8%
